Source: PubChem BioAssay (National Center for Advancing Translational Sciences (NCATS))
gsp antagonist = antagonists of gsp mutant (McCune-Albright syndrome); gsp-mutant cells, cAMP HTRF, 30 min; control for the full effect not named in the record; Potency, µM (titrated, usually from 76.9 µM), for inactives: top-dose activity change, negative = inhibition, usual class: inhibitors; 340,000 compounds, 0.4% hits; AID 624288; active = falling curve of any shape with a large fitted effect; inconclusive = falling curve, mostly with a smaller effect; inactive = flat or rising curve; cell line not stated here;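 also: intracellular cAMP measured with PDE inhibitor Ro 20-1724 present during compound exposure; potency is read from the fitted curve at half-maximal effect; % is scaled to controls: 0 for no effect and ±100 for the full control effect; nearly all actives have a fitted effect of over 65% in size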
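Measurement of cellular cAMP by homogeneous time-resolved fluorescence following a 30 min compound exposure at 37C. The PDE inhibitor […] was present throughout; the assay buffer was DPBS with 0.05% BSA and 0.005% Tween 20.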
D2 ag = activates the human D2 dopamine receptor; P14416; DiscoveRx PathHunter D2 beta-arrestin, luminescence, 90 min; 100% = 57 uM dopamine signal; activation, % (no concentration beside the values); 360,000 compounds, 0.084% hits; in the data active = activation above about 40%; inconclusive = about 15% to 40%; inactive = below about 15%; also: compound concentration not given in the record; the text of the record calls up to 30% inactive
Target sequence (P14416 whole entry, looked up): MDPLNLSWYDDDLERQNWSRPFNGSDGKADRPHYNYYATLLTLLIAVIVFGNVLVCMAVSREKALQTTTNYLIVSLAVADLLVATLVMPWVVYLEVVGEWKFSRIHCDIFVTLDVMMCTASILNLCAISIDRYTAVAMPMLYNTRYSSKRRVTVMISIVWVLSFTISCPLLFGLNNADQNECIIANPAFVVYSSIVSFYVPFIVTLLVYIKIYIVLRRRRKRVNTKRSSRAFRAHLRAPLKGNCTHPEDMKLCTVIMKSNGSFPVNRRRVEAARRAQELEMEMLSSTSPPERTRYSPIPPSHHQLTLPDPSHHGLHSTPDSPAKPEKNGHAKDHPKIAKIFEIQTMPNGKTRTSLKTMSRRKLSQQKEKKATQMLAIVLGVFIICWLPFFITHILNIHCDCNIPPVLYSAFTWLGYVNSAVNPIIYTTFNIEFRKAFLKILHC
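Agonist mode: compounds alone added to overnight-plated D2 PathHunter cells for 90 min at 37 C, with 57 uM final dopamine (EC100) defining full response. Beta-arrestin recruitment detected by chemiluminescent reagent, read after 1 h at ambient temperature.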
ClpP mod = qHTS Assay for Activators of ClpP. ATP-dependent Clp protease proteolytic subunit (Bacillus subtilis (strain 168)), P80244. purified B. subtilis ClpP, FRET peptide cleavage, 20 min. Potency, µM (series often up to 57.5 µM), for inactives: at the highest dose activity change, negative = active. 340,000 compounds, 1.9% hits. AID 651965, 2013; active = well fitted falling curve with a large enough effect; inconclusive = small, poorly fitted or top-dose-only effect; inactive = no such curve, though single readings can be large or run the other way; also: potency is read from the fitted curve at half-maximal effect; the source files actives as falling curves though it sought activators and does not explain the sign; nearly all actives have a fitted effect of over 65% in size; many hits overshoot -100%
Target sequence (P80244 whole entry, looked up): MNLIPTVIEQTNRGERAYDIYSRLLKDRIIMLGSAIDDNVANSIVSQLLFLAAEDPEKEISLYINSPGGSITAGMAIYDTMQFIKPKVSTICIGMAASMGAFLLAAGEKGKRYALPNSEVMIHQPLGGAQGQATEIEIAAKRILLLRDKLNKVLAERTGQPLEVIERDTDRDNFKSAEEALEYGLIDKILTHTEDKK
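Purified B. subtilis ClpP, 10 microg/mL final in Tris/HCl pH8 with KCl, BSA, glycerol and Tween-20, cleaved an Abz/nitrotyrosine-quenched decapeptide. Fluorescence (ex 320, em 430) was read at 0 and 20 min at room temperature. Delta was normalized to 5.8 microM ADEP and DMSO/no-enzyme controls.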
Sfp inh = blocks B. subtilis Sfp PPTase activity; Biochemical Sfp PPTase activity, qHTS; Potency, µM, for the others: max response, negative = inhibition, usual class: inhibitors; 310,000 compounds, 3.5% hits; AID 1490; active = well fitted inhibition curve with a large enough effect; inconclusive = small, poorly fitted or top-dose-only effect, or another doubt; inactive = no such curve, though single readings can be large or run the other way;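 also: the enzyme is Sfp with the accession as filed and its product quenches rhodamine fluorescence; potency is read from the fitted curve at half-maximal effect; 0% = enzyme reaction without inhibitor and -100% = no enzyme wells; top concentration of the series not given in the record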
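Fluorescence-quenching assay: 15 nM Sfp-PPTase preincubated 15 min at room temperature with compound, then 5 uM rhodamine-CoA and 12.5 uM BHQ-2-labelled YbbR peptide added. Fluorescence (ex 525/em 598 nm) read at start and after 30 min; difference gives rate.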
PINK1 modulator = PINK1 expression modulation | PINK1 immunofluorescence, high-content cytometry, 24 h | Potency, µM (top dose mostly 76.6 µM), without a hit: top-dose activation (PINK1 increase), hits mostly activators | 410,000 compounds, 0.2% hits; active = well fitted activation curve with a large enough effect; inconclusive = small, poorly fitted or top-dose-only effect; inactive = flat fitted curve, though single readings scatter; cell line not stated here;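 also: potency is read from the fitted curve at half-maximal effect; % of control where 0% means no effect; nearly all actives have a fitted effect of over 65% in size; a mitochondrial uncoupler was the plate control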
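PINK1 protein level read as immunofluorescence by microplate cytometer in a fixed, stained stable cell line after 24 h exposure to five compound concentrations, with CCCP as control.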
gsp ag = gsp mutant agonism. gsp mutant cells, cAMP HTRF, 30 min; control for the full effect not named in the record. Potency, µM (series often up to 76.9 µM), for inactives: at the highest dose activation (cAMP increase), hits mostly activators. 340,000 compounds, 0.13% hits. AID 624287; active = well fitted activation curve with a large enough effect; inconclusive = small, poorly fitted or top-dose-only effect, or another doubt; inactive = no such curve, though single readings can be large or run the other way; cell line not stated here;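 also: phosphodiesterase inhibitor Ro 20-1724 added with compounds to block cAMP breakdown; potency is read from the fitted curve at half-maximal effect; nearly all actives have a fitted effect of over 60% in size; about a fifth of the inactives were tested at one dose only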
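Cells stably selected in G418 were plated at 2000/well, grown 16-24 hr, then given compounds in DMSO with the PDE inhibitor […] (300 uM solution added) for 30 min at 37C; cAMP was read by HTRF.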
Menin MLL FP FL = menin-MLL binding inhibition, fluorescein peptide; FP activity change, % at 61.4 µM; AID 1766; 290,000 tested, under 10 active; Fluorescence polarization, fluorescein-MLL peptide displacement from menin; inconclusive = falling polarisation curve, or a change in total fluorescence; inactive = total fluorescence flat and polarisation flat or rising; no compound was filed as active; the % refers to the polarisation; negative = inhibition;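 also: % of control where 0% means no effect; inhibitors lower the polarisation; unlabelled MLL peptide was the positive control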
Active calls of the source: *; ? = inconclusive; . = not tested or not shown; & = joins results of further samples; [ ] = remark or other dose.

SMILES	gsp antagonist	D2 ag	ClpP mod	Sfp inh	PINK1 modulator	gsp ag	Menin MLL FP FL
N#Cc1cccc(S(=O)(=O)Nc2c(NC3CCCCC3)c3ccccc3oc2=O)c1	-22.2%	5.0	0.8%	5.7%	-0.6%	?	.
O=C(/C=C/c1ccc(S(=O)(=O)N2CCOCC2)cc1)NC(=S)Nc1ccc(Cl)cc1Cl	-11.4%	0.8	.	6.7%	1.2%	-1.4%[15.4 µM]	5.2
CCOc1ccc(OCCCC(=O)ON=C(N)c2ccccc2C)cc1	1.2%	5.6	1.1%	.	5.6%	0.9%	.
COc1ccc(OC)c(/C=N/NC(=O)c2cc3c(OC)cccc3[nH]2)c1	?	3.4	.	-0.6%	-0.6%	13.7%[15.4 µM]	-7.3
O=C(N/N=C/c1ccc(OCCCF)cc1)c1cc(OCC(F)(F)F)ccc1OCC(F)(F)F	1.4%	5.3	-10.9%	6.9%	10.9%	-48.1%[inhibitor]	5.9
CC(C)C(=O)NC(=S)Nc1ccc(S(=O)(=O)Nc2ccccc2)cc1	-8.3%	-1.0	1.3%	4.3%	-0.6%	-31.3%[inhibitor]	7.6
Cc1cc(C)n(-c2ncnc3c2oc2ccccc23)n1	1.9%	-4.2	-3.2%	15.7%	1.7%	22.3%	1.9
CC(C)(C)NCC(=O)c1c[nH]c2ccccc12	4.4%	-2.3	-2.0%	-0.6%	-0.7%	-30.5%	2.7
CC1(C)CN(c2ccc(Br)cc2Br)C1=O	-24.3%	0.2	.	8.5%	3.1%	-4.4%[15.4 µM]	-0.3
COc1ccc(OC)c(C(=O)COC(=O)c2cc(C)oc2C)c1	?	-1.9	-9.5%	-15.2%	0.4%	-28.2%	0.3
CC(OC(=O)c1cc(S(=O)(=O)N2CCOCC2)ccc1Br)C(=O)N1CCOCC1 (stereo unspecified)	-2.7%	-0.5	4.4%	.	-0.3%	?	.
CCn1c(CCNC(=O)c2ccc(Cl)cc2)n[nH]c1=S	3.9%	0.2	-3.9%	6.4%	-1.7%	-14.3%	3.2
CN(C)c1ccc(C=Cc2cnccn2)cc1	-23.0%	0.5	.	.	-0.4%	?	.
CCCC1CC(CSc2ncn[nH]2)OC1=O (stereo unspecified)	15.3%	-0.2	0.2%	4.8%	-1.1%	2.0%[15.4 µM]	1.2
Cc1ccc(C(=O)N2CCCC(CCC(=O)NCc3ccc(F)c(F)c3)C2)cn1 (stereo unspecified)	0.8%	-4.5	-5.6%	25.0%	-2.1%	29.0%	3.2
CC1(C)C2CCC1(C)C(OCCNCCOC(=O)Nc1ccccc1)C2 (stereo unspecified)	0.1%	0.1	0.1%	12.9%	2.3%	8.2%	2.8
COCCNC(=O)c1cc(Br)ccc1Cl	17.8%	-5.8	-0.6%	6.5%	0.2%	21.4%	2.6
CC(=O)c1cccc(-c2ccc3c(c2)C(C)(Cc2ccccc2F)C(=O)N3)c1 (stereo unspecified)	.	4.7	-4.3%	.	3.6%	.	.
CCCCCCn1c(=O)n2n(c1=O)[C@@H]1CN(S(=O)(=O)c3ccc(C)cc3)C[C@]1(O)[C@@H](OC(=O)NCC1CCCCC1)C2	.	-8.7	0.7%	.	?	0.4%	.
COc1ccc(CC(=O)NCCS(=O)(=O)N2CCN(c3ccccc3)CC2)cc1	2.1%	1.7	-0.1%	.	4.7%	-50.8%[inhibitor]	.

4 entries from above, set out differently:
Values run as follows: gsp antagonist | D2 ag | ClpP mod | Sfp inh | PINK1 modulator | gsp ag | Menin MLL FP FL
COc1ccc(OC)c(/C=N/NC(=O)c2cc3c(OC)cccc3[nH]2)c1
    ? | 3.4 | . | -0.6% | -0.6% | 13.7%[15.4 µM] | -7.3
O=C(N/N=C/c1ccc(OCCCF)cc1)c1cc(OCC(F)(F)F)ccc1OCC(F)(F)F
    1.4% | 5.3 | -10.9% | 6.9% | 10.9% | -48.1%[inhibitor] | 5.9
CC(C)C(=O)NC(=S)Nc1ccc(S(=O)(=O)Nc2ccccc2)cc1
    -8.3% | -1.0 | 1.3% | 4.3% | -0.6% | -31.3%[inhibitor] | 7.6
Cc1cc(C)n(-c2ncnc3c2oc2ccccc23)n1
    1.9% | -4.2 | -3.2% | 15.7% | 1.7% | 22.3% | 1.9

Later entries.
SMILES	gsp antagonist	D2 ag	ClpP mod	Sfp inh	PINK1 modulator	gsp ag	Menin MLL FP FL
COc1ccc(NC(=O)C(CC(=O)O)Cc2ccc(C)cc2)cc1 (stereo unspecified)	-9.3%	-6.9	-7.9%	17.3%	0.2%	2.5%[15.4 µM]	-0.1
Cc1nc(C(Cl)(Cl)Cl)nc2[nH]ccc(=O)c12	.	6.0	.	15.6%	0.2%	5.2%[15.4 µM]	4.7
COc1ccc(NC(=S)N2CCC(N(C)CCN3CCOCC3)CC2)cc1Cl	-2.6%	-0.9	-4.9%	9.8%	-0.3%	-26.3%	-0.1
COc1ccc(/C=N/NC(=O)c2ccc(N(C)S(=O)(=O)c3ccccc3)cc2)cc1	?	2.3	-15.4%	-3.2%	-0.1%	15.2%	3.2
Cc1ccc(S(=O)(=O)N2CCCOC2CNC(=O)C(=O)NCc2ccc3c(c2)OCO3)cc1 (stereo unspecified)	4.6%	-2.5	-1.2%	15.0%	-0.3%	16.8%[15.4 µM]	.
Nc1cc(=O)[nH]c(SCC(=O)Nc2ccc(S(=O)(=O)N3CCOCC3)cc2)n1	2.2%	-3.3	-1.6%	1.8%	2.5%[38.3 µM]	-2.4%	4.7
Cc1cc2c(SCc3ccccc3Cl)nc(N)nc2nc1C	-6.4%	-1.4	.	.	1.2%	-23.6%	.
COc1ccccc1N1C(=O)S/C(=C\c2cccs2)C1=O	4.3%	3.0	0.1%	13.7%	2.1%	-1.5%[15.4 µM]	1.7
Cc1nnc(SCC(=O)NCC2COc3ccccc3O2)s1 (stereo unspecified)	-2.7%	-1.9	-2.5%	.	0.6%	-28.2%	.
Cc1cc(/C=N/NC(=O)c2cccnc2)c(C)n1CC(C)C	15.6%	2.8	.	-5.1%	0.6%	-4.7%[15.4 µM]	4.0
Cc1ccc(S(=O)(=O)N2CCN(C(=O)CCC(=O)Nc3ccc(Br)c(C)c3)CC2)cc1	?	0.0	-0.7%	.	-1.3%	6.4%	.
CCOC(=O)C(C)Sc1nnc(CSc2nc3nc(C)cc(C)n3n2)o1 (stereo unspecified)	12.1%	-4.2	1.1%	-2.6%	-0.1%	5.0%	1.3
COc1cc(C(C)=O)ccc1OCC(=O)NC(=O)Nc1ccc(C)cc1C	32.3%	0.5	-2.3%	.	11.3%	-6.3%	.
Cc1ccc2c(COC(=O)c3n[nH]c4ccccc34)cc(=O)oc2c1	-5.8%	2.2	-14.1%	8.5%	2.7%	14.1%	2.9
Nc1nc(SCc2ccc(Cl)cc2Cl)nc2nc3c(cc12)CCCC3	-4.0%	-4.5	?	-8.0%	?	-2.5%	26.3
Cc1cc(C)cc(NC(=O)CSc2nc3c(c(=O)[nH]2)CN(Cc2ccc(F)cc2)CC3)c1	-18.3%	-7.4	-4.4%&-2.9%	4.6%	-0.5%&14.0%	-4.9%	3.5
O=C1C=C(NCc2ccc(Cl)c(Cl)c2)C2(CCCCC2)O1	-17.5%	2.9	0.4%	11.8%	25.0%	-19.9%	-3.3
C=CCn1c(=O)c(C(=O)NC2CC2)c(O)c2cc(OC)c(OC)cc21	38.2%[activator]	-4.4	.	21.1%	1.0%	-16.4%	3.1
CC(C)Cn1c(-c2cccs2)nc2nc3ccccc3nc21	-2.9%	-3.9	30.8%	-13.2%	-2.5%	-19.3%	7.6
Cc1cc(C)c2c(=O)[nH]c(SCC(=O)Nc3ccc(Br)cc3)nc2n1	6.3%	-6.2	.	1.7%	9.0%	9.0%	-1.9
CCOC(=O)C1CCN(CC(O)COCc2ccc(Cl)cc2)CC1 (stereo unspecified)	9.1%	-3.7	-0.7%	10.4%	0.2%	12.2%	.
Cc1ccc(CC(=O)Nc2ccc(S(=O)(=O)Nc3nccc(C)n3)cc2)cc1	8.91µM*	3.8	-0.7%	22.4%	1.1%	-15.4%	-0.8
O=C(CSc1ncc(-c2ccc(F)cc2)[nH]1)N1CCCCC1	0.0%	-0.1	-0.8%	11.4%	-2.1%[38.3 µM]	-16.8%	3.7
COC(Cc1nnc(SC)n1-c1ccccc1)OC	12.5%	1.0	1.0%	5.3%	0.0%	3.0%	-0.3
O=C(Cn1cc(C(F)(F)F)ccc1=O)Nc1cccc(S(=O)(=O)N2CCOCC2)c1	2.6%	-1.8	-2.9%	7.9%	0.7%	?	2.9
CCN(CC)CCCN(Cc1cc2cc(OC)ccc2[nH]c1=O)C(=O)Nc1ccccc1	5.8%	-3.3	.	4.4%	3.7%	-14.0%[15.4 µM]	2.2
CCOc1ccc(NCC(=O)N/N=C/C=C/c2ccccc2)cc1	-6.9%	-2.4	-2.2%	6.2%	2.0%	-43.7%	0.4
CSc1nnc(CNS(=O)(=O)c2ccc(F)cc2)n1C	4.7%	-2.9	.	12.8%	1.8%	4.9%[15.4 µM]	-4.7
COc1cccc(N2CCN(C(=O)c3ccc(Cl)c(S(=O)(=O)N4CCCCCC4)c3)CC2)c1	.	0.9	0.4%	.	0.2%	-113.5%[inhibitor]	.

Just gsp antagonist and Sfp inh (4 entries from above):
| SMILES | gsp antagonist | Sfp inh |
| --- | --- | --- |
| Cc1ccc(CC(=O)Nc2ccc(S(=O)(=O)Nc3nccc(C)n3)cc2)cc1 | 8.91µM* | 22.4% |
| O=C(CSc1ncc(-c2ccc(F)cc2)[nH]1)N1CCCCC1 | 0.0% | 11.4% |
| COC(Cc1nnc(SC)n1-c1ccccc1)OC | 12.5% | 5.3% |
| O=C(Cn1cc(C(F)(F)F)ccc1=O)Nc1cccc(S(=O)(=O)N2CCOCC2)c1 | 2.6% | 7.9% |
